# Assay outcomes deposited in PubChem BioAssay by National Center for Advancing Translational Sciences (NCATS).
# VDR inh = vitamin D3 receptor (human) inhibition; VDR-SRC2-3 peptide fluorescence polarization, 2 h; Potency, µM, without a hit: max response, negative = inhibition, most hits filed as inhibitors; 400,000 tested, 0.93% active; AID 504847; active = well fitted inhibition curve with a large enough effect; inconclusive = small, poorly fitted or top-dose-only effect, or another doubt; inactive = no such curve, though single readings can be large or run the other way; note: series mostly up to about 120 µM
# Target sequence (P11473 whole entry, looked up): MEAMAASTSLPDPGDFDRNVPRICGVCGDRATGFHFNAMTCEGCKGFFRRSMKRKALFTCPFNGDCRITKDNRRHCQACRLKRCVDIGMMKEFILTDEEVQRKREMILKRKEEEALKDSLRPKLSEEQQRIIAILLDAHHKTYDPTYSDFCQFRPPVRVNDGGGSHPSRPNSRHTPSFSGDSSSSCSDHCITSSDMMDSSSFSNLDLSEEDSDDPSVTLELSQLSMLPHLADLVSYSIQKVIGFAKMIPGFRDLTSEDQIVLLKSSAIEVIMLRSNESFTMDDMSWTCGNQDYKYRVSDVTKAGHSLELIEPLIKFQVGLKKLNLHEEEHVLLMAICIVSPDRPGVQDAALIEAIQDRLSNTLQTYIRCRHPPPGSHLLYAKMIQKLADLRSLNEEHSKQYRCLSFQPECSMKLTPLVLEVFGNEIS
#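 VDR–SRC2-3 interaction, FP format. Cmpds 23 nl via pintool, brief spin, 2 h ambient incubation.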
# * marks the source's active call; other numbers are inactive results; ? = inconclusive; [ ] = remark or other dose. % is set by controls: 0 for no effect and ±100 for the full control effect; potency is the fitted concentration of half-maximal effect. Only part of the results is shown. The share of hits here may be higher or lower than overall.
mol	VDR inh
COc1cc(NC(=O)c2ccc(Cl)cc2Cl)ccc1NC(=O)c1cccs1	-13%
Cc1ccc(S(=O)(=O)NCCCNC(=O)N2CCOCC2)cc1	-9%
CCn1c(SCc2cccc(C)c2)nnc1-c1ccccc1	12%
CCOc1ncccc1C(=O)OCC(=O)c1cc(C)n(Cc2ccco2)c1C	13%
Nc1ccccc1C(=O)C[C@@H](N)C(=O)O	8%
Cn1cnc(Sc2ncnc3nc[nH]c23)c1[N+](=O)[O-]	9%
COc1ccccc1/C=C/C=N/NC(=O)c1ccccn1	20%
Cc1ccc(S(=O)(=O)N(C)C)cc1NC(=O)C(C)OC(=O)c1ccc2ccccc2n1 (stereo unspecified)	8%
CCOC(=O)CNC(=O)c1cc(-c2ccccn2)nc2c(C)c(Cl)ccc12	-10%
CCc1nnc(NC(=O)CSc2ncnc3c2oc2ccccc23)s1	-13%
Cc1nn(-c2ccccc2)nc1C(N)=O	-1%
N#Cc1c(-c2ccc3c(c2)OCO3)ccn2nc(-c3cccc(C(F)(F)F)c3)nc12	-2%
CN(C)/C=C(\C=O)c1ccc(Cl)cc1Cl	0%
NC(=S)N/N=C1\CCOc2ccc(F)cc21	10%
O=C(COC(=O)Cn1cnc2ccccc21)Nc1cccc2c1C(=O)c1ccccc1C2=O	2%
O=c1ccc2ccc(Oc3ccc([N+](=O)[O-])cc3Cl)cc2o1	-3%
COc1ccc(CNC(=O)c2ccc(NC(=O)CC3SC(N4CCCCC4)=NC3=O)cc2)cc1 (stereo unspecified)	-4%
O=C(COCC(=O)NCc1ccccc1)NCc1ccccc1	14%
COc1cc(S(=O)(=O)NC(C)C)ccc1Cl	3%
CN1CCN(S(=O)(=O)c2cccc(C(=O)Nc3cccc(S(N)(=O)=O)c3)c2)CC1	-12%
Cc1ccnc(NC(=O)C2CCC(CNc3c(N4CCCC4)c(=O)c3=O)CC2)c1 (stereo unspecified)	-16%
CCOc1ncccc1C(=O)Nc1ccc(S(=O)(=O)Nc2nccs2)cc1	-5%
NC(=O)C1CCN(C2CC(=O)NC2=O)CC1 (stereo unspecified)	-4%
O=C(C[C@H]1C/C=C\CCC(=O)O[C@@H](c2ccccc2)CNC1=O)NCCO	-1%
COc1ccc(C2=CC(c3ccc(N(C)C)cc3)n3nnnc3N2)cc1 (stereo unspecified)	11%
CCOc1ccc(CCNC(=O)CCC(=O)N2CCOc3ccc(C)cc32)cc1OCC	-21%
CCOc1cccc(C(=O)Nc2nnc(-c3ccco3)s2)c1	8%
O=C(Nc1ccc(S(=O)(=O)Nc2cnc3ccccc3n2)cc1)c1cccc(OC(F)F)c1	-12%
CCn1c(=O)c2c(nc3n2CCCN3CCc2ccc(OC)c(OC)c2)n(C)c1=O	4%
C=C1CC2C(CCC3(C)C2CCC3(O)C(C)=O)C2(C)CCC(=O)C=C12 (stereo unspecified)	-1%
Cc1cccc2cc(/C=N/NC(=O)CN3CCOCC3)c(Cl)nc12	-9%
COc1cccc(C(=O)OCC(=O)c2[nH]c(C)c(C(C)=O)c2C)c1	-9%
Cc1ccc(CSC2=Nc3ccccc3C3=NC(CCC(=O)NCc4cccs4)C(=O)N23)c(C)c1 (stereo unspecified)	10%
COc1cc2c(cc1OC)C(COc1ccc3c(C)cc(=O)oc3c1)N(C(=O)c1ccccc1F)CC2 (stereo unspecified)	-3%
O=C1OCC2=C1C(c1ccccc1)CC(=O)N2c1ccccc1 (stereo unspecified)	-16%
CCOC(=O)C(=O)N/N=C/c1ccc(F)cc1	12%
COc1cccc(/C=C2\Oc3cc(OCC(=O)N4CCCCC4)ccc3C2=O)c1OC	-15%
COC(=O)Nc1nc(-c2ccccc2)c(C(=O)c2ccccc2)s1	1%
N#CC(c1ccncc1)(c1ncc(C(F)(F)F)cc1Cl)N1CCOCC1 (stereo unspecified)	-8%
CCOc1ccc(Cn2c(=O)sc3ccccc32)cc1OC	-9%
Cc1ccccc1NC(=O)Cc1nnc(N)s1	-3%
O=C(CCc1nnc2ccc(N3CCC4(CC3)OCCO4)nn12)Nc1cc(F)ccc1F	-4%
Cc1cc(C)cc(NC(=O)CSc2nc3c(oc4ccccc43)c(=O)n2-c2ccccc2)c1	-19%
Cn1cc(Br)c(C(=O)n2cc(Br)cn2)n1	?
COc1ccc(OC)c(NC(=O)CNC(=O)c2ccc([N+](=O)[O-])cc2)c1	1%
O=C(COC(=O)C12CC3CC(CC(C3)C1)C2)NCCc1ccccc1	13%
Cc1nonc1NC(=O)CSc1nc2ccccc2cc1C#N	?
O=C(NCCNC(=O)c1ccc(-c2ccc(Cl)c(Cl)c2)o1)c1cnccn1	2%
COc1ccc([C@H]2CC(=O)C=C(c3cccc4c3Oc3ccccc3S4)C2)cc1	-25%
CCCCc1cc(=O)oc2cc(OS(C)(=O)=O)ccc12	6%
O=C(N/N=C/c1ccco1)c1cccc(N2Cc3ccccc3C2)c1	?
CC(=O)N(Cc1nc2sc(C)c(C)c2c(=O)[nH]1)C1CCCC1	-10%
C[C@H](CO)N1C[C@H](C)[C@@H](CN(C)Cc2ccc(-c3ccccc3)cc2)Oc2c(NC(=O)c3ccncc3)cccc2C1=O	14%
CCCc1cc(=O)[nH]c(Nc2cc(C)cc(C)c2)n1	12%
CCOc1ccc(C(=O)NCC(=O)NCC2CCCCC2)cc1OCC	4%
CC(=O)c1c(O)c2ccccc2n(C(C)C)c1=O	-1%

# More records
mol	VDR inh
O=C(Cn1c(C(=O)OCCO)cc2ccccc21)c1ccccc1	4%
COc1ccc(NS(=O)(=O)c2cc(NC(=O)c3ccc(C)o3)ccc2N2CCCCC2)cc1	-5%
CCOC(=O)CC(NC(=O)c1cc2cc(Br)cc(OC)c2oc1=O)c1ccc(OC)cc1 (stereo unspecified)	-2%
Cc1cccc(OCC(=O)NC(=S)N2CCCc3ccccc32)c1	15%
Cc1c(Cc2ccccc2)c(=O)oc2cc(OCC(=O)NCC3CCC(C(=O)O)CC3)ccc12 (stereo unspecified)	-7%
Cc1ccc(Oc2nc3c(C)cccn3c(=O)c2/C=C(\C#N)C(N)=O)cc1	?
O=C(Nc1cccc(-c2nc3ccccc3[nH]2)c1)c1cccc(NC(=O)c2ccco2)c1	37%[activator]
CCOC(=O)C1=C(C)NC(=O)NC1C (stereo unspecified)	0%

# Part of the list above in order of number of heavy atoms, falling.
mol	VDR inh
Cc1c(Cc2ccccc2)c(=O)oc2cc(OCC(=O)NCC3CCC(C(=O)O)CC3)ccc12 (stereo unspecified)	-7%
COc1ccc(NS(=O)(=O)c2cc(NC(=O)c3ccc(C)o3)ccc2N2CCCCC2)cc1	-5%
O=C(Cn1c(C(=O)OCCO)cc2ccccc21)c1ccccc1	4%

# The list continues.
mol	VDR inh
CC12CCC(=O)N1c1c(sc3nc(N4CCOCC4)c4c(c13)CCCC4)C(=O)N2 (stereo unspecified)	2%
CCCCn1cc(S(=O)(=O)c2ccc(OC)cc2)c(=O)c2cc(F)c(N3CCOCC3)cc21	9%
CCN(CC)CCC(=O)NN	18%
O=C(O)c1cccc2c(/C=N/Nc3ccccn3)c[nH]c12	-9%
Cc1cc(N2C(=O)Cc3ccccc3C2=O)ccc1C(C)C	-6%
O=C(c1cnccn1)N1CCC[C@@]2(CCN(c3ccccc3)C2)C1	-10%
CN(CCC1CCOCC1)C(=O)CC1C(=O)NCCN1C/C=C/c1ccccc1 (stereo unspecified)	-3%
CCOCN(C(=O)Cn1c(C)nc2ccccc21)c1c(C)cccc1CC	-12%
O=C(NCc1cccnc1)NC1(C(F)(F)F)Oc2ccccc2O1	5%
Cc1ccc2c(c1)S/C(=C/c1ccc[n+](C)c1)N2CCO	0%
CSc1nc(N)c2c3c(sc2n1)CN(C)CC3	-16%
Cc1cccc(OCC(=O)N2CCC(N3CCOCC3)CC2)c1	15%
CCOc1cccc(CN2CCCC(CCC(=O)NCc3ccccc3F)C2)c1O (stereo unspecified)	-5%
CC(=O)OC1CC(C)N(C(=O)c2ccccc2)c2ccc(C)cc21 (stereo unspecified)	-9%
Nc1c(C(=O)Nc2ccccc2Br)sc2nc(-c3cccs3)ccc12	0%
CCCc1cc(C(=O)NNC(=S)NC(C)c2ccccc2)cs1 (stereo unspecified)	12%
O=C(CSc1ncc2c(n1)-c1ccccc1N(Cc1ccc(F)cc1)S2(=O)=O)c1ccc(Br)cc1	-18%
COc1cccc(N2CCN(C(=O)c3ccc4c(=O)n(CCc5ccccc5)c(=O)[nH]c4c3)CC2)c1	-5%
Nn1cnnc1N/N=C/c1cc(Br)cc(Br)c1O	-29%
C=CCSc1nc2nc(C)cc(C)n2n1	19%
Cc1ccc2[nH]c(=O)c(CN(CC3CCCO3)C(=O)c3cccs3)cc2c1 (stereo unspecified)	17%
O=C1Cc2ccccc2C(=O)N1c1ccccc1	-1%
COc1ccc(C2=NN(C(=O)c3ccccc3C(=O)O)C(c3ccccc3O)C2)cc1 (stereo unspecified)	18%
O=C(NNS(=O)(=O)c1ccc([N+](=O)[O-])cc1)C1CCCCC1	3%

# A section of the results above, for reference:
mol	VDR inh
COc1cccc(N2CCN(C(=O)c3ccc4c(=O)n(CCc5ccccc5)c(=O)[nH]c4c3)CC2)c1	-5%
Nn1cnnc1N/N=C/c1cc(Br)cc(Br)c1O	-29%
C=CCSc1nc2nc(C)cc(C)n2n1	19%
Cc1ccc2[nH]c(=O)c(CN(CC3CCCO3)C(=O)c3cccs3)cc2c1 (stereo unspecified)	17%
O=C1Cc2ccccc2C(=O)N1c1ccccc1	-1%
COc1ccc(C2=NN(C(=O)c3ccccc3C(=O)O)C(c3ccccc3O)C2)cc1 (stereo unspecified)	18%
O=C(NNS(=O)(=O)c1ccc([N+](=O)[O-])cc1)C1CCCCC1	3%

# The list continues.
mol	VDR inh
CC(c1ccccc1)N1C(=O)c2ccc(C(=O)Nc3ccc(Br)cc3C(=O)O)cc2C1=O (stereo unspecified)	?
O=C(CN1CCN(c2cccc(Cl)c2)CC1)N1CCCC1	5%
COc1ccc(-c2cc3nc(C)c(CCC(=O)NC4CCCCC4)c(C)n3n2)c(OC)c1	1%
CCc1ccc(-n2nc3ccc(NC(=O)c4cc5ccccc5o4)cc3n2)cc1	-14%
NC(=Nc1ccc(Br)cc1)c1ccccc1	-9%
COc1ccc(CN=Cc2[nH]c3ccc(Br)c(Cl)c3c2O)cc1	?
Cc1ccc(S(=O)(=O)NC2(C(=O)O)CCCCC2)cc1	-4%
Cc1ccc(S(=O)(=O)N[C@H](C(=O)N2CCC(C(=O)N[C@@H](CC(=O)O)C(=O)O)CC2)C(C)C)cc1	-8%
Cc1nn(Cc2noc(C(=O)NC3CCC(C)CC3)n2)c(C)c1Br (stereo unspecified)	12%
CC1(C)CC(=O)C2=C(C1)NC(Nc1nc3ccccc3o1)=NC21CCCC1	-27%
CCOC(=O)c1cnc(Nc2ccc(OCC)cc2)nc1C	13%
COc1ccccc1CNC(=O)CCCn1c(=O)c2ccccc2n(Cc2ccccc2C#N)c1=O	13%
COc1ccc(O)c(C=NCC(C)N=Cc2cc(OC)ccc2O)c1 (stereo unspecified)	4%
CCn1c(SCC(=O)Nc2ccccc2OC)nnc1-c1cnccn1	5%
CCC1(c2ccccc2)NC(=O)N(CC(=O)N2CC(=O)Nc3ccccc32)C1=O (stereo unspecified)	-2%
O=C(Nc1cccc(-c2cn3c(n2)SCC3)c1)c1ccc2c(c1)OCO2	1%
CC(=O)C1=C(O)C(=O)N(Cc2ccccc2)C1c1ccco1 (stereo unspecified)	0%
COc1ccc(S(=O)(=O)N2CCC(C(=O)NC3CCCC3)CC2)cc1C	10%
O=C(CSc1nnc(NC(=O)c2cccc(F)c2)s1)NCc1ccco1	-14%
COc1ccc(/C=N/NC(=O)c2ccc(N3CCCC3=O)cc2)cc1	-2%
COc1ccc(NC(=O)CSc2nnc(Cn3nnc4ccccc43)n2C)cc1	-1%
CCCCCNCc1ccc(OCc2ccc(Cl)nc2)c(OC)c1	-22%
O=S(=O)(NCCc1nnc2ccc(SCc3ccccc3Cl)nn12)c1ccccc1	2%
O=S(=O)(c1ccccc1)c1nc(-c2ccco2)oc1N1CCCCC1	-4%
c1ccc(N2CCOCC2)c(Nc2nc3ccccc3n3cnnc23)c1	-21%
Clc1cc2c(cc1/C=N/Nc1nc(N3CCOCC3)nc(N3CCOCC3)n1)OCO2	4%
COC(=O)c1ccccc1NC(=O)CSc1nc(N)cc(N)n1	5%
O=C(Oc1cccc(C(=S)N2CCOCC2)c1)c1cccc([N+](=O)[O-])c1	-5%
CN(C)S(=O)(=O)c1cccc(C(=O)NCCCn2ccnc2)c1	7%
N#Cc1ccccc1CSc1nnc2ccc3ccccc3n12	3%
COc1cccc(CNC(=O)CSc2c3c(nc4ccc(Cl)cc24)CCCC3)c1OC	-28%
Cc1ccc2[nH]c3nc(SCC#N)nnc3c2c1	7%
Cc1cccc(-c2cc(C(=O)Nc3ccncc3)c3ccccc3n2)c1	-7%
CC(=O)c1ccc2noc(-c3cccc(C)c3)c2c1	-15%
O=C(O)C1CCC(=O)N(C2CC2)C1c1ccccc1 (stereo unspecified)	-14%
CCOc1cc(/C=N/O)cc(Br)c1OCC	9%
O=C(COC(=O)C1CC(=O)N(Cc2ccco2)C1)Nc1nc(-c2ccc(F)cc2)cs1 (stereo unspecified)	-25%

# Random excerpt: two entries already listed.
mol	VDR inh
CC(=O)c1ccc2noc(-c3cccc(C)c3)c2c1	-15%
Cc1cccc(-c2cc(C(=O)Nc3ccncc3)c3ccccc3n2)c1	-7%
